Ab BasE inh – BasE siderophore enzyme inhibitors, primary screen, biochemical, Acinetobacter baumannii ATCC 17978, fluorescence polarization. 0.1% of 84,000 active. purified BasE, fluorescence polarization binding displacement. AID 485350, 2010. inhibition, % (test concentration not listed);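 active means both replicates above 25% with normal brightness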;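 further: 0% = negative plate control signal and 100% = positive plate control signal; stock transfer was 100 nL into about 30 µL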
LANA-nucl inh – inhibitors of KSHV LANA-nucleosome binding, primary screen, biochemical, fluorescence polarization, FITC-LANA1-23, chicken nucleosomes; FITC-LANA1-23 / chicken nucleosome fluorescence polarization; hits give low values; z-score (test concentration not listed); 0.3% of 51,000 active;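 active means both repeat wells score below -2 in polarization z-score versus plate sample wells, excluding overly bright wells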;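 further: 100 nL library stock added to about 30 µL; numbers are from one replicate; some results filed as inactive read as strong as hits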
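System – purified chicken nucleosomes with FITC-labelled LANA N-terminal peptide (1-23) · Amount – 240 nM purified chicken nucleosomes (480 nM peptide binding sites), final · Also added – 50 nM FITC-LANA1-23 probe · Medium – TEN-BT buffer, pH 7.5 · Incubation – compound with peptide–nucleosome mix 10–45 min at room temperature · Detection – fluorescence polarization, ex 480 nm, em 535 nm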
* marks the source's active call; other numbers are inactive results; nt = no result given; & = joins results of further samples. The list is partial; the hit share may differ from the screen's.

SMILES | Ab BasE inh | LANA-nucl inh
CS(=O)(=O)N(CCc1ccccc1)CC(=O)N1CCCC1 | -1.3 | 0.793
COc1cc(CO)ccc1OCC(=O)N1c2ccccc2CC1C (stereo unspecified) | 1.3 | nt
CN(C1=NS(=O)(=O)c2ccccc21)c1ccccc1 | 0.4 | 0.407
CNC(=S)Nn1cnc2ccccc21 | 1.0 | nt
CC1=CC(C)(C)N(C(=O)CSc2nnc(-c3ccccc3)o2)c2ccccc21 | 0.8 | 0.0365
O=C(Cc1n[nH]c(=O)c2ccccc12)N/N=C/c1ccncc1 | 3.0 | 0.546
C=CCSc1nc2ccccc2n1CN1CCCC(C(N)=O)C1 (stereo unspecified) | -0.8 | nt
CC1CC(C)CN(C(=O)Cn2c(SCC(=O)N(C(C)C)C(C)C)nc3ccccc32)C1 (stereo unspecified) | 0.4 | 1.22
CCC1Cc2c(nc3c4c(nc(N5CCOCC5)c(C#N)c24)NC(C)=N3)O1 (stereo unspecified) | -1.9 | nt
CC1=C(C(=O)N(C)C)C(c2ccccc2)NC(=S)N1 (stereo unspecified) | -0.1 | -1.56
N#Cc1cnc(SCCc2ccccc2)nc1N | -4.8 | 0.72
CCNCc1ccc(N(C)C)cc1 | 0.4 | nt
CCCCn1c(SCC(=O)NCc2ccco2)nc2ccccc2c1=O | -1.0 | -0.0085
CCOc1cc(/C=C2/NC(=O)N(c3ccccc3)C2=O)cc(Br)c1O | 2.5 | -0.0725
Cc1ccc(C)c(NC(=O)Cn2ncc3ccccc32)c1 | 2.5 | 0.905
O=C(CSc1nc2c(sc3ccccc32)c(=O)n1-c1ccccc1)NCc1ccco1 | -0.3 | 0.205
CN1C(=O)/C(=C2\SC(=S)N(C3CCS(=O)(=O)C3)C2=O)c2cc(Br)ccc21 (stereo unspecified) | 0.6 | nt
O=c1[nH]c(CN2CCCCC2)nc2ccccc12 | 0.7 | nt
CC1CC(=O)NN=C1c1cccs1 (stereo unspecified) | -0.4 | nt
O=C(O)CCCC(=O)N1CCN(C(c2ccccc2)c2ccccc2)CC1 | 0.0 | -0.214
CCc1ccc2c(c1)C1CC(C)(NC(=S)N1)O2 (stereo unspecified) | -0.1 | 2.93
Cc1cc(C)cc(OC(=O)CCN2C(=O)c3ccccc3C2=O)c1 | 0.8 | nt
N#Cc1ccccc1COC(=O)c1nc(-c2ccccc2)n(-c2ccccc2)n1 | 2.2 | nt
COC(=O)c1ccc2c(c1)N(Cc1ccccc1F)C(=O)CS2=O (stereo unspecified) | 2.0 | 0.0345
Cc1nn(-c2ccccc2)c2c1-c1sc(C(=O)NC3CC3)cc1CC2 | -2.2 | 3.1
N#Cc1cccc(NC(=O)CSc2nc3cc(S(=O)(=O)N4CCCCC4)ccc3o2)c1 | -1.6 | nt
O=C1CN=C(Nc2ccc(F)cc2)N1C1CCCC1 | -0.7 | 1.35
COc1ccc(/C=N/NC2=NS(=O)(=O)c3ccccc32)cc1 | 1.9 | 0.867
COc1ccc(N2CCN(c3cc(=O)n4oc(C)cc4n3)CC2)cc1 | 0.0 | nt
Cc1noc(C)c1C(=O)NCC(c1ccccc1Cl)c1c[nH]c2ccccc12 (stereo unspecified) | -0.9 | nt
O=S(=O)(c1ccccc1Oc1ccc(Cl)cc1Cl)N1CCSCC1 | nt | 1.08
Cc1ccc(N=C2CCCN2Cc2ccccc2)c(C#N)c1 | -1.6 | -0.0155
O=C(NCc1ccco1)Nc1ccccc1 | -1.8 | 0.66
Cc1cc(N2CCOCC2)nc2ccccc12 | nt | 0.66
CC1CCCC(C)N1S(=O)(=O)c1ccc(NC(=O)CCn2cnc3ccccc3c2=O)cc1 (stereo unspecified) | -1.5 | 0.294
O=C(NCc1ccc(F)cc1)c1ccncc1 | 1.4 | 0.343
Cc1ccc(NC2C=CS(=O)(=O)C2)cc1 (stereo unspecified) | 2.4 | nt
CNC(=S)N/N=C/c1cccc(Cl)c1 | 4.2 | nt
CC(C)n1cc(C(=O)O)c(=O)c2ccccc21 | 1.0 | 0.364
O=C1c2cccnc2C(=O)N1c1ccc2c(c1)OCO2 | -2.2 | -0.259

The list goes on, overlapping the part above by 6 compounds.
SMILES | Ab BasE inh | LANA-nucl inh
CC1CCCC(C)N1S(=O)(=O)c1ccc(NC(=O)CCn2cnc3ccccc3c2=O)cc1 (stereo unspecified) | -1.5 | 0.294
O=C(NCc1ccc(F)cc1)c1ccncc1 | 1.4 | 0.343
Cc1ccc(NC2C=CS(=O)(=O)C2)cc1 (stereo unspecified) | 2.4 | nt
CNC(=S)N/N=C/c1cccc(Cl)c1 | 4.2 | nt
CC(C)n1cc(C(=O)O)c(=O)c2ccccc21 | 1.0 | 0.364
O=C1c2cccnc2C(=O)N1c1ccc2c(c1)OCO2 | -2.2 | -0.259
OCc1ccccc1O | -1.4 | 0.165&-0.866
CCCc1cc(=O)[nH]c2c1c(C)nn2-c1cccc(F)c1 | -2.3 | 1.12
N#C/C(C(=S)NCc1ccccc1)=C1/NN=C2CCCCCN21 | 2.0 | nt
CC(C)(CO)C(O)C(=O)NN (stereo unspecified) | 1.7 | -0.233
CCOc1ccccc1-c1cc(C(=O)N/N=C(\C)c2ccco2)[nH]n1 | 1.0 | 0.283
COc1ccc(/C=C(\C#N)C(=O)ONC2=NCCCCC2)cc1 | 2.0 | nt
C(=NCCCN1CCOCC1)c1ccc2c(c1)OCO2 | 0.7 | 0.657
S=C1NC2=C(C(c3ccc(Br)cc3)N1)N1CCC2CC1 (stereo unspecified) | 0.2 | -0.828
COc1cc(NC(=O)c2ccccc2)c(OC)cc1NCC(=O)Nc1ccc2c(c1)OCCO2 | 2.4 | nt
CN(c1ccc(C(=O)NCc2cccnc2)cc1)S(C)(=O)=O | -1.1 | -0.37
O=C(O)c1cccc(Oc2cccc(C(F)(F)F)c2)c1 | -2.2 | nt
COc1ccc(N2CCN(Cc3ccc(C)o3)CC2)cc1 | -2.3 | 0.0635
Cc1cc2oc(=O)cc(COC(=O)C3CC3)c2cc1Cl | 1.4 | nt
Clc1ccc(OCc2ccsc2Cn2cccc2)cc1 | -1.3 | nt
Cc1ccc(C)n1-c1ccc(C(=O)NN)s1 | -4.2 | nt
Cc1cnc(NC(=O)c2ccc3c(c2)OCO3)s1 | 1.6 | 0.123
Nc1ccccc1C(=O)NCc1ccccc1 | 3.2 | nt
CC(=O)Nc1sc2c(c1CN(C)C)CCCC2 | -2.1 | nt
Cc1ccc(C(=O)OCc2ccco2)cc1 | 2.2 | -0.239
CCOc1cc(S(=O)(=O)N2CCC(c3nc4ccccc4s3)CC2)c(OCC)cc1S(=O)(=O)N1CCOCC1 | -0.2 | -0.252
O=c1ccc2ccccc2o1 | -0.9 | 0.032&0.338
Cc1cccc(NC(=O)COC(=O)c2cc(C)oc2C)c1 | -0.1 | nt
O=C1/C(=C/c2ccco2)CCc2ccccc21 | 2.6 | 0.36
C1CCN(CCC2CCNCC2)CC1 | 0.3 | -0.183
CC(O)c1cc2ccccc2o1 (stereo unspecified) | 0.6 | nt
CC(Oc1cc(C(F)(F)F)cc(C(F)(F)F)c1)C(=O)NC(N)=O (stereo unspecified) | 0.8 | nt
NNC(=O)CCc1ccc(O)cc1 | 2.5 | 1
CCC1Oc2ccc(C)cc2N(CC(=O)Nc2ccc3c(c2)OCCO3)C1=O (stereo unspecified) | -1.6 | -0.367
COc1ccc2[nH]c(S(=O)Cc3ncc(C)c(OC)c3C)nc2n1 (stereo unspecified) | nt | 0.123
CC1CN(Cn2c(=S)oc3ccccc32)CC(C)O1 (stereo unspecified) | 8.9 | nt
O=C1CC2(O)CCC1(c1ccccc1)CC2 | 5.1 | 0.567
Brc1cncc(Br)c1 | 1.1 | nt
CN(C)S(=O)(=O)c1ccc(C(=O)Nc2nnc(C3CC3)o2)cc1 | -2.7 | 2.11
COCCNC(=O)c1cc(-c2ccccc2O)no1 | 1.8 | -1.54
CCOC(=O)c1c(-c2ccccc2)oc2ccc(NS(=O)(=O)c3ccc(CC)cc3)cc12 | 5.3 | nt
Cn1c(C(=O)OCC(=O)NC2CCCCC2)cc2sccc21 | 1.2 | -0.589
Cc1nn(C(=O)C23CC4CC(CC(C4)C2)C3)c(C)c1Sc1ccccc1 | -0.2 | nt
CC1Cc2ccccc2N1CC(=O)N1Cc2ccccc2C1 (stereo unspecified) | 1.4 | nt
O=C(Cc1ccc(Cl)cc1)Nc1cccc(-c2nc3cc4ccccc4cc3[nH]2)c1 | 1.2 | nt
COc1cc(/C=N/N=C2/SC(CC(=O)O)C(=O)N2C)cc(OC)c1OC (stereo unspecified) | 0.7 | -0.206
CC1CN(C(=O)CNc2ccccc2C(=O)NCc2ccccc2)CC(C)O1 (stereo unspecified) | 0.7 | nt
CC(NC(=O)c1ccccc1)c1nc2ccccc2n1CC(=O)NC(=O)NC(C)(C)C (stereo unspecified) | 2.8 | nt
CCOC(=O)c1nnn2c1nc(N(Cc1ccccc1)Cc1ccccc1)c1ccccc12 | 1.0 | nt
Cc1cc(C)nc(SCC(=O)OCC(=O)Nc2sccc2C#N)n1 | -6.0 | nt
O=C(NCCC1CCCC1)c1cccs1 | -0.1 | -1.11
Cc1c(NC(=O)Cc2ccc(S(=O)(=O)N3CCCCC3)cc2)c(=O)n(-c2ccccc2)n1C | 2.2 | nt
CC(O)CNc1nc2ccccc2n1CC(O)COCc1ccco1 (stereo unspecified) | -1.7 | nt
N#Cc1ccc(NC(=O)CNCC2CCCCC2)cc1 | -2.7 | 0.461
Cc1ccc(S(=O)(=O)NC(C)C(=O)O)cc1 (stereo unspecified) | -0.2 | nt
COC(=O)c1ccc(N2C(=O)Cc3c2nc(N)c2c(N)nc(N(C)C(C)C)c(C#N)c32)cc1 | -1.9 | nt

New compounds follow.
SMILES | Ab BasE inh | LANA-nucl inh
N#Cc1nc(-c2cccc(Cl)c2)oc1NCCc1ccccc1 | 2.1 | -1.03
CC(C)(C)c1nc(CN2CCOCC2)cc(CN2CCOCC2)c1O | 0.5 | -0.641
CC(C(=O)O)c1ccc(N)cc1 (stereo unspecified) | nt | -0.586
CN(C)c1ccc(NC(=O)c2cccs2)cc1 | nt | -1.43
S=C(NC1CCCCC1)N1CCCCCC1 | -3.6 | 2.08
COC(=O)c1ccc(C(c2c(N)n(C)c(=O)n(C)c2=O)N2CCN(c3ccccc3)CC2)cc1 (stereo unspecified) | 2.0 | nt
O=C1CSC(c2ccccc2)N1Cc1ccccn1 (stereo unspecified) | 1.8 | nt
CCOC(=O)c1ccc(-c2ccc(/C=c3/sc4nc5c(C)c(C)ccc5n4c3=O)o2)cc1 | 2.6 | nt
Cc1c(C)c(C)c2[nH]c(-c3ccc4c(c3)OCO4)nc2c1C | -0.2 | nt
C/[N+]([O-])=C\c1coc2ccccc2c1=O | nt | 0.476

Some of these compounds in order of molar mass, largest number first:
SMILES | Ab BasE inh | LANA-nucl inh
Cc1cc(N2CCOCC2)nc2ccccc12 | nt | 0.66
CC1CC(=O)NN=C1c1cccs1 (stereo unspecified) | -0.4 | nt
CC(C)(CO)C(O)C(=O)NN (stereo unspecified) | 1.7 | -0.233

Returning to the listing; the three compounds before the break are reprinted first.
SMILES | Ab BasE inh | LANA-nucl inh
CCOC(=O)c1ccc(-c2ccc(/C=c3/sc4nc5c(C)c(C)ccc5n4c3=O)o2)cc1 | 2.6 | nt
Cc1c(C)c(C)c2[nH]c(-c3ccc4c(c3)OCO4)nc2c1C | -0.2 | nt
C/[N+]([O-])=C\c1coc2ccccc2c1=O | nt | 0.476
CCOC(=O)c1c(N)sc2c1CCN(C(=O)OCC)C2 | -0.2 | -0.0785
O=c1c2ccccc2[nH]c(=S)n1CC1CCCO1 (stereo unspecified) | 1.6 | -1.31
CC1CCCCC1NC(=O)Cn1nnc(-c2ccc(N(C)C)cc2)n1 (stereo unspecified) | 0.7 | 0.0515
O=C(NCN1CCCCC1)Nc1cccc(Cl)c1 | -0.5 | 0.828
COc1nc(OC)nc(N2CCC(C(=O)NC3CCCCCC3)CC2)n1 | -2.8 | 2.42
CN1CCN(CCC(=O)N/N=C/c2ccccc2)CC1 | 0.6 | -0.55
Cc1ccc(S(=O)(=O)N(C)S(=O)(=O)c2ccc(C#N)cc2)cc1 | -0.6 | nt
Cc1ccc(CNc2ncnc3c2oc2ccccc23)cc1 | 0.9 | nt
O=C(N/N=C/c1ccccc1)c1n[nH]c(=O)c2ccccc12 | -5.5 | nt
CC(N)C(=O)Nc1ccc2c(c1)Cc1ccccc1-2 (stereo unspecified) | -1.5 | 0.418
O=S(=O)(c1ccc(Cl)cc1)N1CN(Cc2cccs2)c2nc3ccccc3nc21 | 0.0 | -0.591
CCc1ccccc1OCCSc1ncccn1 | 0.3 | -0.0555
O=c1ccnc(SCc2ccc(CSc3nccc(=O)[nH]3)cc2)[nH]1 | -0.3&2.8 | -0.217
CCCc1n(CC(O)COCC2CC=CCC2)c2ccccc2[n+]1C (stereo unspecified) | 1.7 | nt
COc1cc(C(=S)N2CCCC2)cc(Cl)c1O | 1.1 | -0.18
CC(C)(C)OC(=O)N1CCC(C(=O)OCC(=O)c2ccc3c(c2)CCC3)CC1 | -1.0 | nt
Cc1ccc(-c2noc(CCCCCN)n2)cc1 | -3.4 | nt
CN(CC(F)(F)C(F)F)S(=O)c1ccc2ccccc2c1 (stereo unspecified) | -1.5 | nt
C/C(=C\C(=O)c1ccccc1)Nc1cccc(O)c1 | 2.7 | -0.143
COC(=O)Cn1c(=N)n(Cc2ccc(C(C)(C)C)cc2)c2ccccc21 | -3.3 | -0.151

From PubChem BioAssay
